# Bioassay records as filed in PubChem BioAssay.
# A1 apoptosis 2 = A1 inhibition read as caspase activation | MEF A1-2A-BIM cells, caspase-Glo luminescence, 3 h; percent of clofoctol response, DMSO zero | caspase activation, % (concentration not given with the values) | 24,000 tested, under 10 active | AID 2465; in the data active = caspase activation above about 5.9%; inconclusive = no clear call, values can overlap the other calls; inactive = below about 2.2%;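 note: wells of about 30 µL received 50 nL stock; the first replicate is given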
#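 system = A1-2A-BIM-expressing MEF cells | quantity = 2500 MEF cells/well | dosing = 50 nL compound per well, pinned | schedule = overnight cell settling, then 3 h compound exposure, 37 °C | signal = luminescence from DEVD-luciferin Caspase-Glo reagent, 1:1 in 50 mM HEPES, 1 h RT | read-out = Caspase-3/7 activation, seen as rise in luminescence signal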
# * = called active by the depositor; ? = inconclusive. Some of the compounds tested; the hit share may differ from the screen's.
SMILES,A1 apoptosis 2
COc1ccc(S(=O)(=O)Nc2cccc3c2O[C@@H](CN(C)S(=O)(=O)c2ccc(C)cc2)[C@H](C)CN([C@H](C)CO)C3=O)cc1,0.0
COc1ccc(NC(=O)Nc2ccc3c(c2)C(=O)N([C@H](C)CO)C[C@H](C)[C@H](CN(C)C(=O)Nc2ccc4c(c2)OCO4)O3)cc1,-0.8
Cc1noc(C)c1NC(=O)N(C)C[C@H]1Oc2ccc(NC(=O)NC3CCCCC3)cc2CC(=O)N([C@@H](C)CO)C[C@@H]1C,0.4
CCOc1cc(OCC)cc(C(=O)N[C@@H](Cc2ccc(-n3cc(COc4ccccc4/C=C(C)/C=C/C(=O)NO)nn3)cc2)C(=O)OC)c1,?
C[C@@H]1CN([C@@H](C)CO)C(=O)c2cc(NC(=O)c3ccccc3)ccc2O[C@@H](C)CCCCO[C@H]1CN(C)S(=O)(=O)c1ccc(F)cc1,1.8
COc1ccc(S(=O)(=O)Nc2ccc3c(c2)C(=O)N([C@H](C)CO)C[C@@H](C)[C@@H](CN(C)S(=O)(=O)c2ccc(OC)cc2)OCCCC[C@H](C)O3)cc1,-1.2
Cc1noc(C)c1S(=O)(=O)Nc1ccc2c(c1)C(=O)N([C@@H](C)CO)C[C@H](C)[C@H](CN(C)CC1CC1)O2,-0.8
COc1ccc(S(=O)(=O)Nc2ccc3c(c2)C(=O)N([C@@H](C)CO)C[C@H](C)[C@H](CN(C)C(=O)CCCN(C)C)OCCCC[C@@H](C)O3)cc1,-0.3
C[C@@H]1CN([C@H](C)CO)C(=O)Cc2cc(NC(=O)Nc3ccccc3)ccc2O[C@@H]1CN(C)CC1CC1,-1.3
Cc1noc(C)c1NC(=O)N(C)C[C@@H]1Oc2ccc(NC(=O)Nc3ccc(F)cc3)cc2C(=O)N([C@H](C)CO)C[C@H]1C,0.0
C[C@@H]1CN([C@@H](C)CO)C(=O)c2cc(NC(=O)Nc3cccc4ccccc34)ccc2O[C@H]1CN(C)S(=O)(=O)c1cn(C)cn1,1.6
CC(C)NC(=O)N(C)C[C@@H]1Oc2ccc(NS(=O)(=O)c3cccs3)cc2CC(=O)N([C@@H](C)CO)C[C@@H]1C,1.6
C[C@@H]1CCCCO[C@H](CN(C)C(=O)Nc2ccc(F)cc2)[C@H](C)CN([C@@H](C)CO)C(=O)c2cc(NC(=O)Nc3ccc(F)cc3)ccc2O1,-1.1
C[C@@H]1CN([C@@H](C)CO)C(=O)c2cc(NC(=O)Cc3ccccc3)ccc2O[C@@H](C)CCCCO[C@@H]1CN(C)C(=O)Nc1cccc2ccccc12,0.4
C[C@H](CO)N1C[C@H](C)[C@@H](CN(C)C(=O)c2cc(-c3ccccc3)on2)OCc2cnnn2CCCC1=O,-0.2
COc1ccc(S(=O)(=O)Nc2ccc3c(c2)C(=O)N([C@@H](C)CO)C[C@@H](C)[C@H](CN(C)S(=O)(=O)c2cn(C)cn2)O3)cc1,-1.6
C[C@H](CO)N1C[C@H](C)[C@H](CN(C)S(=O)(=O)c2ccc(F)cc2)Oc2ccc(NS(=O)(=O)c3cn(C)cn3)cc2C1=O,0.6
Cc1ccc(S(=O)(=O)Nc2ccc3c(c2)C(=O)N([C@@H](C)CO)C[C@H](C)[C@@H](CN(C)S(=O)(=O)c2ccccc2)O3)cc1,0.1
C[C@H](CO)N1C[C@H](C)[C@H](CN(C)C(=O)Nc2ccccc2)Oc2ccc(NS(=O)(=O)c3ccc(Cl)cc3)cc2CC1=O,-0.7
COc1ccc(S(=O)(=O)N(C)C[C@H]2Oc3c(NC(=O)NC4CCCCC4)cccc3C(=O)N([C@@H](C)CO)C[C@H]2C)cc1,1.3
COc1ccc(CN(C)C[C@H]2Oc3c(NC(=O)C4CCCCC4)cccc3C(=O)N([C@H](C)CO)C[C@@H]2C)cc1,-0.1
C[C@@H]1CN([C@@H](C)CO)C(=O)c2cccc(NC(=O)C3CCOCC3)c2O[C@H]1CN(C)Cc1ccc(C(=O)O)cc1,-1.3
COCCOC(=O)N1C(=O)[C@@]2(c3cc(C#CC4=CCCCC4)ccc31)[C@H](C(=O)N1CCc3cc(OC)c(OC)cc3C1)[C@H]1C(=O)O[C@H](c3ccccc3)[C@H](c3ccccc3)N1[C@@H]2c1ccc(O)cc1,0.8
COc1ccc(CN(C)C[C@@H]2Oc3ccc(NC(=O)Cn4cnnn4)cc3C(=O)N([C@@H](C)CO)C[C@@H]2C)cc1,0.1
C[C@@H]1CN([C@@H](C)CO)C(=O)c2cc(NC(=O)CCCCCC(=O)Nc3ccccc3N)ccc2O[C@@H]1CN(C)S(=O)(=O)c1ccccc1,-1.2
C[C@@H]1CCCCO[C@@H](CN(C)S(C)(=O)=O)[C@H](C)CN([C@H](C)CO)C(=O)c2cc(NS(=O)(=O)c3ccccc3)ccc2O1,-0.2
COc1ccc(NC(=O)Nc2ccc3c(c2)C(=O)N([C@@H](C)CO)C[C@@H](C)[C@H](CN(C)C(=O)c2ccccc2)OCCCC[C@H](C)O3)cc1,2.3
C[C@H]1CCCCO[C@H](CN(C)C(=O)Nc2ccc(F)cc2)[C@@H](C)CN([C@@H](C)CO)C(=O)c2cc(NC(=O)C3CCCCC3)ccc2O1,1.2
Cc1noc(C)c1NC(=O)Nc1ccc2c(c1)C(=O)N([C@H](C)CO)C[C@@H](C)[C@H](CN(C)S(=O)(=O)c1ccc(Cl)cc1)O2,0.5
COc1ccc(S(=O)(=O)Nc2ccc3c(c2)C(=O)N([C@@H](C)CO)C[C@@H](C)[C@H](CN(C)Cc2ccc4c(c2)OCO4)O3)cc1,0.9
COc1ccc(CN(C)C[C@@H]2Oc3ccc(NC(=O)C4CCCCC4)cc3C(=O)N([C@H](C)CO)C[C@H]2C)cc1,0.8
C[C@@H]1CCCCO[C@@H](CN(C)S(=O)(=O)c2cccs2)[C@H](C)CN([C@H](C)CO)C(=O)c2cc(NC(=O)Nc3cccc4ccccc34)ccc2O1,0.8
Cc1ccc(S(=O)(=O)N(C)C[C@H]2Oc3c(NS(=O)(=O)c4c(C)noc4C)cccc3C(=O)N([C@H](C)CO)C[C@H]2C)cc1,-0.5
C[C@@H]1CCCCO[C@@H](CN(C)C(=O)CCCN(C)C)[C@@H](C)CN([C@@H](C)CO)C(=O)c2cc(NC(=O)Nc3ccc(C(F)(F)F)cc3)ccc2O1,-2.2
COc1ccc(S(=O)(=O)Nc2cccc3c2O[C@@H](CN(C)C(=O)NC2CCCCC2)[C@H](C)CN([C@H](C)CO)C3=O)cc1,-0.6
C[C@@H]1CCCCO[C@@H](CN(C)C)[C@H](C)CN([C@H](C)CO)C(=O)c2cc(N(C)C)ccc2O1,0.6
C[C@H]1CN([C@@H](C)CO)C(=O)c2cccc(NC(=O)C3CCOCC3)c2O[C@@H]1CN(C)Cc1ccc(C(=O)Nc2ccccc2N)cc1,0.6
C[C@H]1CN([C@@H](C)CO)C(=O)c2cc(NC(=O)Nc3ccccc3)ccc2O[C@H]1CN(C)S(=O)(=O)c1cccs1,0.4
COC(=O)C(CC#Cc1ccc2c(c1)[C@]1(C(=O)N2)[C@H](c2ccc(O)cc2)N2[C@H](c3ccccc3)[C@H](c3ccccc3)OC(=O)[C@H]2[C@@H]1C(=O)N1CCN(c2ncccn2)CC1)C(=O)OC,0.5
CNC[C@@H]1Oc2c(NC(=O)C3CCCCC3)cccc2C(=O)N([C@H](C)CO)C[C@H]1C,-0.4

# Overlap with the part before: 6 compounds, then new ones.
SMILES,A1 apoptosis 2
COc1ccc(S(=O)(=O)Nc2cccc3c2O[C@@H](CN(C)C(=O)NC2CCCCC2)[C@H](C)CN([C@H](C)CO)C3=O)cc1,-0.6
C[C@@H]1CCCCO[C@@H](CN(C)C)[C@H](C)CN([C@H](C)CO)C(=O)c2cc(N(C)C)ccc2O1,0.6
C[C@H]1CN([C@@H](C)CO)C(=O)c2cccc(NC(=O)C3CCOCC3)c2O[C@@H]1CN(C)Cc1ccc(C(=O)Nc2ccccc2N)cc1,0.6
C[C@H]1CN([C@@H](C)CO)C(=O)c2cc(NC(=O)Nc3ccccc3)ccc2O[C@H]1CN(C)S(=O)(=O)c1cccs1,0.4
COC(=O)C(CC#Cc1ccc2c(c1)[C@]1(C(=O)N2)[C@H](c2ccc(O)cc2)N2[C@H](c3ccccc3)[C@H](c3ccccc3)OC(=O)[C@H]2[C@@H]1C(=O)N1CCN(c2ncccn2)CC1)C(=O)OC,0.5
CNC[C@@H]1Oc2c(NC(=O)C3CCCCC3)cccc2C(=O)N([C@H](C)CO)C[C@H]1C,-0.4
C[C@@H]1CN([C@H](C)CO)C(=O)c2cc(NS(=O)(=O)c3ccc(F)cc3)ccc2O[C@@H](C)CCCCO[C@H]1CN(C)Cc1ccccc1,0.0
COc1ccc(COC[C@]23N=C4Sc5ccc([N+](=O)[O-])cc5C(=O)N4[C@H](c4ccccc4O2)[C@H]3CO)cc1,-0.4
COC(=O)CCCCCCC(=O)N/N=C/C[C@@H](C)CCC=C(C)C,0.3
Cc1noc(C)c1S(=O)(=O)N(C)C[C@H]1Oc2ccc(NC(=O)Nc3cccc4ccccc34)cc2CC(=O)N([C@H](C)CO)C[C@@H]1C,-0.1
C[C@@H]1CCCCO[C@H](CN(C)C(=O)c2ccncc2)[C@@H](C)CN([C@@H](C)CO)C(=O)c2cc(NC(=O)CCC(F)(F)F)ccc2O1,-0.8
C[C@@H]1CCCCO[C@H](CN(C)Cc2ccncc2)[C@H](C)CN([C@@H](C)CO)C(=O)c2cc(NS(=O)(=O)c3cn(C)cn3)ccc2O1,-1.0
COc1cccc(S(=O)(=O)N(C)C[C@@H]2Oc3ncc(/C=C/c4ccccc4)cc3C(=O)N([C@H](C)CO)C[C@@H]2C)c1,1.0
C[C@H](CO)N1C[C@H](C)[C@@H](CN(C)Cc2ccc(O)cc2)OCc2cn(nn2)CCCC1=O,1.3
C[C@@H]1CCCCO[C@H](CN(C)C(=O)c2ccncc2)[C@@H](C)CN([C@H](C)CO)C(=O)c2cc(N(C)C)ccc2O1,0.2
CC(C)NC(=O)Nc1ccc2c(c1)C(=O)N([C@@H](C)CO)C[C@H](C)[C@H](CN(C)C(=O)Nc1ccccc1)OCCCC[C@@H](C)O2,-0.1
Cc1ccc(S(=O)(=O)N(C)C[C@@H]2OCCCC[C@@H](C)Oc3ccc(NC(=O)Nc4c(C)noc4C)cc3C(=O)N([C@H](C)CO)C[C@@H]2C)cc1,-1.3
C[C@H]1CCCCO[C@@H](CN(C)C(=O)Nc2ccc(F)cc2)[C@@H](C)CN([C@@H](C)CO)C(=O)c2cc(N(C)C)ccc2O1,-0.2
CC(C)NC(=O)N(C)C[C@@H]1OCCCC[C@@H](C)Oc2ccc(NC(=O)Nc3cccc4ccccc34)cc2C(=O)N([C@H](C)CO)C[C@@H]1C,-0.1
C[C@@H]1CN([C@@H](C)CO)C(=O)c2cccc(NC(=O)Nc3ccc4c(c3)OCO4)c2O[C@H]1CN(C)Cc1ccc(Oc2ccccc2)cc1,-0.9
C[C@H]1CN([C@@H](C)CO)C(=O)c2cccc(NC(=O)Nc3ccc(F)cc3)c2O[C@@H]1CN(C)S(=O)(=O)c1ccc(F)cc1,0.2
Cc1ccc(S(=O)(=O)Nc2cccc3c2O[C@H](CN(C)S(=O)(=O)c2cccs2)[C@@H](C)CN([C@@H](C)CO)C3=O)cc1,-0.9
Cc1noc(C)c1S(=O)(=O)N(C)C[C@H]1OCCCC[C@@H](C)Oc2ccc(NC(=O)Nc3cccc4ccccc34)cc2C(=O)N([C@@H](C)CO)C[C@@H]1C,-1.0
COC(=O)c1cn(CCCNC(=O)[C@H](Cc2ccccc2)NS(=O)(=O)c2ccc(C)cc2)nn1,-0.2
C[C@@H]1CN([C@@H](C)CO)C(=O)c2cccc(N(C)C)c2O[C@@H]1CN(C)S(=O)(=O)c1ccccc1,0.8
C[C@@H]1CN([C@@H](C)CO)C(=O)c2cc(NC(=O)Nc3cccc4ccccc34)ccc2O[C@@H]1CN(C)S(=O)(=O)c1ccc(Cl)cc1,-0.1

# Exported as labelled records: entries from further up.
C[C@@H]1CN([C@@H](C)CO)C(=O)c2cccc(N(C)C)c2O[C@@H]1CN(C)S(=O)(=O)c1ccccc1
  A1 apoptosis 2: 0.8
C[C@@H]1CN([C@@H](C)CO)C(=O)c2cc(NC(=O)Nc3cccc4ccccc34)ccc2O[C@@H]1CN(C)S(=O)(=O)c1ccc(Cl)cc1
  A1 apoptosis 2: -0.1

# (more compounds)
SMILES,A1 apoptosis 2
C[C@H]1CN([C@@H](C)CO)C(=O)c2cccc(NC(=O)C3CCCCC3)c2O[C@@H]1CN(C)C(=O)Nc1ccc(C(F)(F)F)cc1,-0.3
COc1ccc(S(=O)(=O)N(C)C[C@H]2Oc3ccc(NC(=O)Nc4ccc(F)cc4)cc3C(=O)N([C@H](C)CO)C[C@H]2C)cc1,-0.8
COc1ccc(S(=O)(=O)Nc2cccc3c2O[C@H](CN(C)Cc2ccccc2)[C@H](C)CN([C@@H](C)CO)C3=O)cc1,-0.8
C[C@@H]1CN([C@H](C)CO)C(=O)c2cc(NC(=O)Nc3ccc4c(c3)OCO4)ccc2O[C@@H]1CN(C)Cc1ccc(Cl)c(Cl)c1,-0.1
C[C@H](CO)N1C[C@H](C)[C@@H](CN(C)S(C)(=O)=O)Oc2ccc(N(C)C)cc2C1=O,0.4
C[C@@H]1CN([C@H](C)CO)C(=O)c2cc(NC(=O)CCN3CCOCC3)ccc2O[C@@H]1CN(C)C(=O)Nc1ccc2c(c1)OCO2,-1.0
CNC[C@@H]1OCCCC[C@H](C)Oc2ccc(NC(=O)Nc3cccc4ccccc34)cc2C(=O)N([C@@H](C)CO)C[C@@H]1C,0.5
C[C@H](CO)N1C[C@H](C)[C@H](CN(C)C(=O)NC2CCCCC2)Oc2ccc(NC(=O)Cc3cn(C)c4ccccc34)cc2C1=O,-0.8
Cc1noc(C)c1NC(=O)N(C)C[C@@H]1Oc2c(NC(=O)Nc3ccc(C(F)(F)F)cc3)cccc2C(=O)N([C@@H](C)CO)C[C@H]1C,0.3
